# Source: PubChem (National Center for Advancing Translational Sciences (NCATS))
# Six1-Eya2 inh = qHTS Assay for Inhibitors of the Six1/Eya2 Interaction | Homeobox protein SIX1 (Homo sapiens) + Protein phosphatase EYA2 (Homo sapiens), … | AlphaScreen GST-Six1/His-Eya2 binding, biochemical; hits give low values; control for the full effect not named in the record | activity change, % (no concentration beside the values) | actives 0.56% (n = 360,000); in the data active = activity change below about -65%; inconclusive = about -30% to -65%; inactive = above about -30%; also: % is scaled to controls: 0 for no effect and ±100 for the full control effect; compound concentration not given in the record
# Target sequence (O00167 whole entry, looked up): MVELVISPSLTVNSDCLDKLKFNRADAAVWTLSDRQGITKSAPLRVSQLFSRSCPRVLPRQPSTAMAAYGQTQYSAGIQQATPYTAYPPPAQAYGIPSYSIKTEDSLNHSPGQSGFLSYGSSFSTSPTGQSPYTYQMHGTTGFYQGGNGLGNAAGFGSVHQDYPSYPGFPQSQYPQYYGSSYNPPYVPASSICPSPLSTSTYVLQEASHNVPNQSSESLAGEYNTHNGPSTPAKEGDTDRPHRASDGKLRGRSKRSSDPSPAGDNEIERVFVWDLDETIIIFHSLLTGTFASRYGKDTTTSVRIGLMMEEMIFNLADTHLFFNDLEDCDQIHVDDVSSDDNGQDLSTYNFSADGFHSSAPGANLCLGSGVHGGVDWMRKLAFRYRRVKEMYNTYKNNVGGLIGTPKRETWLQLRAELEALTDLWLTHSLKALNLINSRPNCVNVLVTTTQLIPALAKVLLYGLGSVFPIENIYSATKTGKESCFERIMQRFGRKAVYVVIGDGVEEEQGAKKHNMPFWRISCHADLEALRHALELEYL
# Target sequence (Q15475 whole entry, looked up): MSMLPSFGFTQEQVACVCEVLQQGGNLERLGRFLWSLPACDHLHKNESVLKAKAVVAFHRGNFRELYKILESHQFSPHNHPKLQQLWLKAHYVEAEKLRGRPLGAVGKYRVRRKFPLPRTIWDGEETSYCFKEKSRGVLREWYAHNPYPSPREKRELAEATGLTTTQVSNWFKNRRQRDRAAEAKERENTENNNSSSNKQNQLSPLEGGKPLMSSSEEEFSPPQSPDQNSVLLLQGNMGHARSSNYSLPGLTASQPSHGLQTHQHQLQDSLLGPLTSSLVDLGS
#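 Homogeneous AlphaScreen proximity assay pairing GST-Six1 with His-tagged Eya2 (added as 5X mix: 250 nM and 500 nM) in 50 mM Tris pH 8.0, 300 mM NaCl, 1 mM TCEP. Glutathione donor and nickel acceptor beads; 1 h, 37 °C, dark.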
# D2 ag = Beta-Arrestin HTS for Positive Allosteric Modulators of the Human D2 Dopamine Receptor: Agonists. D(2) dopamine receptor (Homo sapiens), P14416. AID 624465, 2012. DiscoveRx PathHunter D2 beta-arrestin, luminescence, 90 min; 100% = 57 uM dopamine signal. actives 0.084% (n = 360,000). activation, % (no concentration beside the values); in the data active = activation above about 40%; inconclusive = about 15% to 40%; inactive = below about 15%; also: compound concentration not given in the record; the text of the record calls up to 30% inactive
#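 DiscoveRx PathHunter D2 beta-arrestin cells (2,100/well) attached overnight, then compound-stimulated 90 min at 37 C in HBSS/10 mM HEPES/0.1% Tween-20 buffer; beta-galactosidase complementation read by luminescence after 1 h at ambient temperature. Dopamine 57 uM final (EC100) as control.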
# PINK1 modulator = A Quantitative High throughput Screen to Identify Chemical Modulators of PINK1 Expression. PINK1 immunofluorescence, high-content cytometry, 24 h. Potency, µM (titrated, usually from 76.6 µM), without a hit: at the highest dose activation (PINK1 increase), actives largely listed as activators. actives 0.2% (n = 410,000). AID 624263, 2012; active = well fitted activation curve with a large enough effect; inconclusive = small, poorly fitted or top-dose-only effect; inactive = flat fitted curve, though single readings scatter; cell line not stated here;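 also: potency is read from the fitted curve at half-maximal effect; % of control where 0% means no effect; nearly all actives have a fitted effect of over 65% in size; a mitochondrial uncoupler was the plate control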
#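 Fluorescence from anti-PINK1 antibody, together with nuclear and cell stains, was scanned on a laser-scanning cytometer. Before staining, stable-line cells were incubated 24 hours with compounds at 5 concentrations; primary antibody 12 h at 10 degrees C.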
# CtBP-E1A inh = qHTS Assay for Inhibitors of the CtBP/E1A Interaction. AlphaScreen GST-E1A/His-CtBP binding, 1536-well; hits give low values; control for the full effect not named in the record. activity change, % (no concentration beside the values). actives 0.49% (n = 340,000). AID 651724, 2012; in the data active means activity change below about -65%; inconclusive means about -30% to -65%; inactive means above about -30%; also: % is scaled to controls: 0 for no effect and ±100 for the full control effect; compound concentration not given in the record
#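 In 5 uL wells, 23 nL compound meets equimolar GST-E1A and His-CtBP (5X stock 125 nM each) for 2 h, 37 °C. Beads (5X, 50 ug/mL) then 1 h, 37 °C, dark.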
# TRPV1 potentiator = HTS Assay for Compounds that Act as Potentiators of the Vanilloid Receptor 1 | AID 540277, 2011 | potentiation, % at 8.33 µM | Transient receptor potential cation channel subfamily V member 1 (Homo sapiens), Q8NER1 | TRPV1-expressing cells, Fluo-8 calcium influx, capsaicin EC20 potentiation; host cell line not named in the record; control for the full effect not named in the record | actives 0.02% (n = 320,000); active means potentiation above 80%; inconclusive means 30% to 80%; inactive means below 30%; also: 0% is about no effect
#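 Fluo-8 calcium influx in TRPV1-expressing cells, kinetic read (ex 480/em 520 nm). Compound added and read 3 min for agonist activity, followed by capsaicin at EC20 final and 2 min further read for enhancement.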
# Sfp inh = qHTS Assay for Inhibitors of Bacillus subtilis Sfp phosphopantetheinyl transferase (PPTase); AID 1490, 2009; actives 3.5% (n = 310,000); Potency, µM, for inactives: max response, negative = inhibition, hits mostly inhibitors; Biochemical Sfp PPTase activity, qHTS; active = well fitted inhibition curve with a large enough effect; inconclusive = small, poorly fitted or top-dose-only effect, or another doubt; inactive = no such curve, though single readings can be large or run the other way;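 also: the enzyme is Sfp with the accession as filed and its product quenches rhodamine fluorescence; potency is read from the fitted curve at half-maximal effect; 0% = enzyme reaction without inhibitor and -100% = no enzyme wells; top concentration of the series not given in the record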
#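 Step 1, compound plus 15 nM Sfp-PPTase, 15 min, room temperature. Step 2, add rhodamine-CoA (5 uM) and BHQ-2-YbbR (12.5 uM). Step 3, read 525/598 nm fluorescence at 0 and 30 min.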
# D2 PAM = Beta-Arrestin HTS for Positive Allosteric Modulators of the Human D2 Dopamine Receptor: Potentiators; AID 624464, 2012; actives 0.23% (n = 360,000); D(2) dopamine receptor (Homo sapiens), P14416; potentiation, % (no concentration beside the values); DiscoveRx D2 beta-arrestin cells, luminescence, 90 min; 100% = 57 uM dopamine signal; active = potentiation of 50% or more; inconclusive = 30% to 50%; inactive = 30% or less;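 also: compound concentration not given in the record; tested on top of an EC20 dose of dopamine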
#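 D2 cells co-treated with compound plus 50 nM dopamine (EC20) for 90 min at 37 deg C to detect potentiation. Beta-arrestin recruitment was read as enzyme-fragment luminescence after 1 h at ambient temperature. Full response was set by 57 uM dopamine.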
# An asterisk follows results filed as active; ? = inconclusive; / = not tested or not shown; [ ] = dose if it differs, or a comment.
SMILES,Six1-Eya2 inh,D2 ag,PINK1 modulator,CtBP-E1A inh,TRPV1 potentiator,Sfp inh,D2 PAM
COC(=O)c1cc(C#N)c(N2CCN(C)CC2)nc1C,0,-3.6,-1.2%,0,2,17%,-13
O=C(Cc1ccccc1)NN1C(=O)C2C(C1=O)C1C=CC2C12CC2 (centres undefined),10,0.6,3.1%,-2,4,18%,-8
COc1ccc(CCNC(=O)C(=O)NCC2OCCN2S(=O)(=O)c2ccc(OC)c(OC)c2)cc1 (centres undefined),-1,-2.3,-0.3%,0,2,15%,1
COc1ccc(/C=C/C(=O)OCC(=O)NCc2ccccc2Cl)cc1OC,-7,5.3,1.3%,-2,/,/,-4
CC(C)(C)NC(=O)CN1CCC(O)(c2ccc3c(c2)OCO3)CC1,-2,-1.5,-0.4%,3,7,36%[activator],-4
CS(=O)(=O)c1cnc(-c2ccccc2)nc1Oc1ccc(F)cc1,-4,-1.8,?,-1,-26,-12%,-22
COc1cccc(/C=N/NC(=O)c2ccccc2N(Cc2ccccc2)S(=O)(=O)c2ccccc2)c1OC,-4,-6.0,0.2%,-5,6,-4%,-27
CCCCC(=O)NC1(C(F)(F)F)NC(=O)N(Cc2ccccc2)C1=O (centres undefined),-13,-2.8,-0.6%,14,8,5%,-6
CCC(C)CCN1C(N(C)C)=NC[C@@H]1CC(C)C (some centres undefined),-2,-3.8,1.4%,-10,-5,/,-10
O=C(CNC(=O)c1ccccc1)N/N=C/C=C/c1ccccc1,-1,0.0,-1.6%,0,0,19%,-11
COC(=O)CC1C(=O)NCCN1C(=O)CSc1nnnn1-c1ccc(Cl)cc1 (centres undefined),2,-8.9,-1.8%,/,-1,-9%,-45
O=C(CCc1ccccc1Cl)Nc1cccc(S(=O)(=O)N2CCCC2)c1,-7,0.1,3.7%,14,-3,10%,11
CCn1c(C)nc2cc(C(=O)NNS(=O)(=O)c3c(F)cc(F)c(Cl)c3F)ccc21,0,-6.5,0.8%,0,5,17%,-9
Cc1ccc(S(=O)(=O)N2CCC(C(=O)OCC(=O)NC3(C#N)CCCCC3)CC2)cc1C,8,-3.6,0.5%,-3,11,/,-2
CCC(N1CCOC1=O)S(=O)(=O)c1ccc(C)cc1 (centres undefined),-2,-2.6,-1.0%,1,2,-5%,8
O=C(OCC(=O)N1CCCCC1)c1cc(=O)[nH]c2ccccc12,0,-9.1,0.3%,6,/,/,-2
COc1ccc(N(CC(=O)NCCSC2CCCCC2)S(=O)(=O)c2ccccc2)cc1OC,-1,-2.0,-0.7%,3,-6,19%,-3
O=C(Nc1nc2c(c(=O)[nH]1)CCCC2)C1CC1,-3,-1.9,-2.4%,4,0,-3%,-17
CC(=O)c1ccc(OCC(=O)Nc2cccc(C(=O)Nc3c(C)n(C)n(-c4ccccc4)c3=O)c2)cc1,2,2.1,2.5%,3,/,/,-1
COc1ccc(Oc2ncc(CN3CCN(c4ccccc4)CC3)s2)cc1,-29,42*,-0.2%,-21,-2,-1%,27
COCCCNC(=O)CC1C[C@H](C(=O)N2CCCCC2)[C@@]2(CCc3ccccc3)c3[nH]c4ccc(OC)cc4c3CCN2C1=O (some centres undefined),3,-2.0,0.9%,2,/,/,-1
Cc1nc(Nc2nc(CSc3ccc(Cl)cc3)cc(=O)[nH]2)nc2ccccc12,-1,-2.7,4.5%,0,3,-16%,-4
O=C(Nc1ncc([N+](=O)[O-])s1)c1cccc([N+](=O)[O-])c1,3,-8.0,14µM*,/,-6,12%,-40
CC1Cc2ccccc2N1S(=O)(=O)c1ccc(Cl)nc1 (centres undefined),9,-5.7,-0.8%,10,15,9%,-12
COc1cc2[nH]c(C(=O)N3CCc4ccccc4C3)cc2c(OC)c1OC,-4,-0.2,2.2%,-15,-12,1%,-12
N=c1n(CCN2CCOCC2)c2ccccc2n1Cc1ccccc1Br,-1,-3.6,-5.3%[38.3 µM],-2,25,13%,0
COc1cccc(C2C3=C(N=c4s/c(=C\c5cccc(O)c5)c(=O)n42)c2ccccc2CC3)c1OC (centres undefined),2,-0.8,14%,-11,-2,5%,-8
CNC(=O)c1c[nH]c2ccc(S(=O)(=O)Nc3cccc(SC)c3)cc2c1=O,-16,2.9,0.9%,-2,5,19%,-7
CC(=O)c1cc2c(cc1N)OCO2,-3,0.0,-1.9%,-9,-2,-18%,-2
COc1ccc(C(CNCC(O)COc2c(C)ccc(C)c2C)N(C)C)cc1 (centres undefined),-1,1.0,12%,/,8,-13%,-15
O=C(CN1C(=O)NC2(CCCCC2)C1=O)Nc1ccccc1Cl,7,-1.4,0.7%,9,2,5%,-16
Cc1nc2c(C)cccc2c(SC(=N)N)c1CC=C(Cl)Cl,-4,-5.2,-0.8%,/,-6,?,-3
Cc1cc(N2C3CCC2CC(O)(c2ccc(F)cc2)C3)nc(-c2ccccc2)n1 (centres undefined),-7,1.5,0.7%[38.3 µM],-14,19,2%,-23
COC(=O)c1ccc2nc(-c3ccc(F)cc3)c(CC3CCCCC3)n2c1,2,/,2.7%,-1,/,/,/
COc1cc(/C=N/Nc2cc(C)nc(NS(=O)(=O)c3ccc(C)cc3)n2)ccc1O,?,1.8,1.3%,-19,-6,8%,-1
CCN(CC)C(=O)/C(=C\c1ccc2c(c1)OCO2)NC(=O)c1ccc(Br)cc1,-9,-2.3,0.1%,0,10,3%,-7
COCc1cc(C)nc(N)c1C#N,0,-2.0,-1.1%,-4,-8,12%,-6
Cc1cc(C(=O)OCC(=O)NC2CCCCC2)c(C)o1,7,-2.6,0.0%,1,-1,24%,-7
Cc1cccc(OCCCN2CCCCCC2)c1,-1,0.7,-1.0%[38.3 µM],3,-9,-16%,-20
COc1ccc(N2CCN(C(=O)c3oc4ccccc4c3C)CC2)cc1,-24,-3.0,0.0%,0,-12,-6%,-5

# A draw from above in order of count of non-hydrogen atoms, highest first.
SMILES,Six1-Eya2 inh,D2 ag,PINK1 modulator,CtBP-E1A inh,TRPV1 potentiator,Sfp inh,D2 PAM
COCCCNC(=O)CC1C[C@H](C(=O)N2CCCCC2)[C@@]2(CCc3ccccc3)c3[nH]c4ccc(OC)cc4c3CCN2C1=O (some centres undefined),3,-2.0,0.9%,2,/,/,-1
Cc1nc2c(C)cccc2c(SC(=N)N)c1CC=C(Cl)Cl,-4,-5.2,-0.8%,/,-6,?,-3
CC1Cc2ccccc2N1S(=O)(=O)c1ccc(Cl)nc1 (centres undefined),9,-5.7,-0.8%,10,15,9%,-12

# Next structures
SMILES,Six1-Eya2 inh,D2 ag,PINK1 modulator,CtBP-E1A inh,TRPV1 potentiator,Sfp inh,D2 PAM
COCCCNC(=O)CN(c1cc(OC)ccc1OC)S(=O)(=O)c1ccccc1,6,-1.1,-1.1%,-1,3,21%,-18
CCOC(=O)C1C2C=CC3(CN(CCc4ccccc4)C(=O)C13)O2 (centres undefined),3,-1.0,0.9%,3,2,19%,-7
Cc1ccc2nc(-c3cccc(NC(=O)c4ccco4)c3)[nH]c2c1,-4,-0.1,0.9%,-6,-1,4%,-3
O=C1c2ccccc2C(=O)N1CCCSc1nc2ccccc2o1,27,-0.8,0.3%,19,28,-6%,21
CN(Cc1ccc(C(F)(F)F)cc1)C(=O)C1CC(=O)N(Cc2ccco2)C1 (centres undefined),4,-1.6,0.4%,/,/,/,-1
COc1cc(C(=O)NCC(=O)N/N=C/c2ccc(OC(=O)c3ccco3)cc2)cc(OC)c1OC,-8,2.4,-0.8%,-17,8,17%,-16
CC(C)(C)c1csc(NC(=O)c2c(F)c(F)c(F)c(F)c2F)n1,-3,-2.2,-1.3%,/,-4,3%,?
O=C(CSc1nc2ccccc2s1)NC1CCCc2ccccc21 (centres undefined),4,-1.1,-1.4%,-1,1,4%,-3
Cc1c(OCC(=O)N[C@@H](CSCc2ccccc2)C(=O)O)ccc2c3c(c(=O)oc12)CCC3,-27,1.5,0.7%,-4,?,19%,-5
CC1(C(=O)NS(=O)(=O)Cc2cccc(Cl)c2)CCN1C(=O)c1ccc(C2CCCCC2)cc1 (centres undefined),4,-4.2,0.5%,-4,/,/,-5
CCOc1ccc(NC(=O)Nc2cnccn2)cc1,-25,-2.6,3.8%,-2,-10,10%,-6
Cc1noc(C)c1C(=O)N1CCC(CO)(Cc2ccccc2)CC1,8,1.1,-1.3%,-7,-6,2%,-1
O=C(O)c1ccc(/C=C2\COc3ccccc3C2=O)cc1,-19,-4.6,-0.1%,-11,-2,?,-1
COC(=O)c1sccc1NC(=S)Nc1ccc(C)cc1,-3,3.0,0.7%,-1,-16,-8%,-7
CC(C)Cc1nc2oc3c(N4CCN(CCO)CC4)ncnc3c2c2c1CCCC2,0,-5.3,-1.6%,-2,0,-14%,-13
CC(C)Cn1c(NCCO)nc2ccccc21,11,-3.7,0.3%,5,5,20%,-20

# Complete entries as entered above. Order of values: Six1-Eya2 inh | D2 ag | PINK1 modulator | CtBP-E1A inh | TRPV1 potentiator | Sfp inh | D2 PAM
# Results for O=C(CCc1ccccc1Cl)Nc1cccc(S(=O)(=O)N2CCCC2)c1 : -7 | 0.1 | 3.7% | 14 | -3 | 10% | 11
# Results for O=C(CSc1nc2ccccc2s1)NC1CCCc2ccccc21 (centres undefined) : 4 | -1.1 | -1.4% | -1 | 1 | 4% | -3

# 2 of the compounds above, with bars between the fields:
SMILES | Six1-Eya2 inh | D2 ag | PINK1 modulator | CtBP-E1A inh | TRPV1 potentiator | Sfp inh | D2 PAM
O=C1c2ccccc2C(=O)N1CCCSc1nc2ccccc2o1 | 27 | -0.8 | 0.3% | 19 | 28 | -6% | 21
CN(Cc1ccc(C(F)(F)F)cc1)C(=O)C1CC(=O)N(Cc2ccco2)C1 (centres undefined) | 4 | -1.6 | 0.4% | / | / | / | -1

# Rows were taken by chance. Share with any hit: about 3.7%.
